Bioassay records: PubChem, National Center for Advancing Translational Sciences (NCATS)
hNpr1 antagonist = Natriuretic polypeptide receptor (hNpr1) antagonism - Primary qHTS | Potency, µM (doses to about 46.3 µM), without a hit: at the top dose activity change, negative = inhibition, most hits filed as inhibitors | 76,000 tested, 1.6% active | HEK293 hNpr1 GloSensor cGMP, ANP-stimulated luminescence | Atrial natriuretic peptide receptor 1 (Homo sapiens), P16066 | AID 1347048, 2019; active = well fitted inhibition curve with a large enough effect; inconclusive = small, poorly fitted or top-dose-only effect; inactive = no such curve, though single readings can be large or run the other way;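 note: nearly all actives have a fitted effect of over 60% in size; nearly all hits also lower the signal before the agonist is added; a reference antagonist and vehicle were the controls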
Target sequence (P16066 whole entry, looked up): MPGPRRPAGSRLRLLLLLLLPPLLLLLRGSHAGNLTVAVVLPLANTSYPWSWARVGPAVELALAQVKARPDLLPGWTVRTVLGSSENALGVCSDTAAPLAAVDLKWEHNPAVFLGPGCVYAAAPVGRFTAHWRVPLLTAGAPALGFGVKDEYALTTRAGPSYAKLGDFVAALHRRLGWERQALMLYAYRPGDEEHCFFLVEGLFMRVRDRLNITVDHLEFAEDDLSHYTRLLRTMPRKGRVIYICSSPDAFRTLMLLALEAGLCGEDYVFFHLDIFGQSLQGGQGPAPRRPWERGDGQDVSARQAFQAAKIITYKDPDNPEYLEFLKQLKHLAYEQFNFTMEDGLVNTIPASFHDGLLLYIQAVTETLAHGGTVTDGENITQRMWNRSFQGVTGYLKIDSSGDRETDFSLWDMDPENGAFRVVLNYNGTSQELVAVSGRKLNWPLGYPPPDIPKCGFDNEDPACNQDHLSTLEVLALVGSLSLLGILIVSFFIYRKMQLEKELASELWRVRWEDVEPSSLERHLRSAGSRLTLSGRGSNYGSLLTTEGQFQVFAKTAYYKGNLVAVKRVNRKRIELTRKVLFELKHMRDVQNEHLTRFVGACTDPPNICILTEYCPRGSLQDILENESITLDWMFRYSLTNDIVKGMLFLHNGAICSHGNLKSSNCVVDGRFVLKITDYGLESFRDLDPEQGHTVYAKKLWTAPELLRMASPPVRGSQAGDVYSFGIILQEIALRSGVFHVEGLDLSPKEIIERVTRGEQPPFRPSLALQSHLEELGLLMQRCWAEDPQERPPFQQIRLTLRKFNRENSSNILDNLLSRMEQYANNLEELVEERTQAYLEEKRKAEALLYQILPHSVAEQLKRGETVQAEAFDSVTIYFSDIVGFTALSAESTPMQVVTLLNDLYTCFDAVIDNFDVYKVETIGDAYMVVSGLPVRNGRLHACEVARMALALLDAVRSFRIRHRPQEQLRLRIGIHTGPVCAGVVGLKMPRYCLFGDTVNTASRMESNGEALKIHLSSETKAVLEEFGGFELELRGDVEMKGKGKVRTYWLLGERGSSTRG
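HEK293 cells stably expressing human Npr1 and cGMP GloSensor pGS-40F, loaded 2 h with 2% GloSensor reagent, given compound 30 min at room temperature. Luminescence read before and 20 min after 0.1 nM hNppA.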
The depositor's hits bear a star; u = inconclusive; [ ] = another dose, or the depositor's remark. % is set by controls: 0 for no effect and ±100 for the full control effect; potency is the fitted concentration of half-maximal effect.

| hNpr1 antagonist | Molecule |
| --- | --- |
| 1% | O=C(NCCc1ccncc1)C1CN(C(=O)c2ccccc2)CC12CCOCC2 (configuration not stated) |
| -2% | COCCc1noc([C@@H]2CN(C(=O)c3cc(C)ccc3C)C[C@H]2CO)n1 |
| 5%[70.6 µM] | COCCNc1ncccc1-c1noc([C@@H]2CCCN2C2CCN(C)CC2)n1 |
| -4% | CC(C)(C)C1CCC2(CC1)NC(=O)N(CC(=O)Nc1ccccc1)C2=O (configuration not stated) |
| 0% | COCc1nc(N2CCC(c3cc(=O)[nH]c(C)n3)CC2)c2cnn(C)c2n1 |
| -27%[70.6 µM] | Cc1cc(CN2CC(N(C)c3ccccc3C)C2)on1 |
| -1% | O=C(C1CC1)N1CCc2nc(-c3ccc(Cl)cc3)nc(-c3ccccc3)c2C1 |
| u | Cc1cc(-c2cc3c(cn2)CN(Cc2ccccc2O)CCN3)ccn1 |
| 3% | Cc1cnc(-c2ccccc2)n1CCNC(=O)c1cccn1C |
| -10% | O=C([C@@H]1C[C@H](F)CN1C(=O)Cc1ccc(F)cc1)N1CCCCC1 |
| -3% | O=C1C(O)C2(CCCCC2)N1C1CCNCC1 (configuration not stated) |
| -10% | O=C(c1cc(F)cc(F)c1)N1C[C@@H](CO)[C@H](c2ccncc2)C1 |
| 7% | COC(=O)c1ccccc1NC(=O)Cn1nc2n(c1=O)CCCCC2 |
| 1% | Cc1cccnc1NCCNC(=O)c1cc(S(N)(=O)=O)ccc1F |
| 4% | COc1ccccc1NC(=O)NC[C@H]1O[C@H](Cc2cc(COc3ccccc3)on2)CC[C@@H]1O |
| 0% | Cc1ccc(-c2nc(C3CC(=O)N(c4ccc(F)c(Cl)c4)C3)no2)cc1 (configuration not stated) |
| -5% | COCc1nc(C2CCCN(C(=O)c3ccccn3)C2)no1 (configuration not stated) |
| -1% | CS(=O)(=O)N1CCN(C(=O)C2CCNCC2)C[C@@H]1C(=O)N[C@H](Cc1c[nH]c2ccccc12)C(N)=O |
| 2% | CCC(=O)N1CCCN(S(C)(=O)=O)C(c2ccccc2)CC(=O)NCC1 (configuration not stated) |
| 5% | OC1Cc2ccccc2C12CCN(Cc1cn(-c3ccccc3)nn1)CC2 (configuration not stated) |
| 0% | O=C(Cc1ccccc1O)N1CCCC(CCc2c(F)cccc2F)C1 (configuration not stated) |
| 5% | COc1ccc(CC(=O)N2C[C@@H](CO)[C@H](c3ccccn3)C2)cc1OC |
| -1% | CC1CCCCN1CCN(C)c1nc(-c2ccncc2)nc2c1cnn2C (configuration not stated) |
| -1%[70.6 µM] | CN1CCN(c2ccc(-c3cn(C)c(=O)n4cc(CNc5ccccc5)nc34)cn2)CC1 |
| 4% | COCC1(C(=O)N2CCN(C)C3(CCNC(=O)CC3)C2)CCC1 (configuration not stated) |
| -1%[70.6 µM] | COCC(=O)N[C@H]1C[C@H]2C(=O)Nc3ccccc3C(=O)N2C1 |
| 3% | CC1(c2ccccc2)N(Cc2ccc(O)cc2)C(=O)OC12CCN(C(=O)c1cccnc1)CC2 (configuration not stated) |
| 1% | Cc1cnc(-c2ccccc2)n1CCNC(=O)C1COc2ccccc2O1 (configuration not stated) |
| u | CC1=C[C@@H](CNC(=O)c2ccncc2)[C@H](C(C)C)C[C@H]1Cc1nnc(-c2ccncc2)o1 |
| u | CC(C)Cc1cc(C[C@@H]2C[C@H](NC(=O)C3CCC3)C2(C)C)no1 |
| -2% | CCOCCOC1CCN(C(=O)Nc2ccc(C(=O)OC)cc2)CC1 |
| -14% | O=C1CCCN1c1ccc(Cn2ccn3nc(-c4ccccc4)c(CO)c3c2=O)cc1 |
| -5% | CCN(Cc1ccccc1)C(=O)CC1CCCN(c2cnn(CCOC)c(=O)c2)C1 (configuration not stated) |
| 0% | COc1ccc(NC(=O)N2CC(N(C3CCOCC3)S(C)(=O)=O)C2)c(C)c1 |
| 4% | O=C(c1ccccc1)N1CCC[C@H]1c1nc(-c2ccc(F)cc2)no1 |
| -8% | Cc1ccc(C(=O)N2CC(C(=O)N(C)C)C3(CCOCC3)C2)c(C)c1 (configuration not stated) |
| -14% | Cc1nn(-c2ccc(C(C)C)cc2)c(C)c1[C@@H]1C=C[C@@H](NC(=S)NC2CCCCC2)C1 |
| -9% | COc1ccc(OC)c(CNC(=O)c2nnn3c2COC(c2ccc(Cl)cc2)C3)c1 (configuration not stated) |
| 31%[activator] | Cc1noc(C)c1[S+](=O)([O-])N1CCCCC12Cc1ccccc1NC2=O (configuration not stated) |
| u | CC1=C[C@@H](CNc2ccccn2)[C@H](C(C)C)C[C@H]1Cc1nnc(-c2ccc(C)cc2)o1 |
| 1%[70.6 µM] | CN1[C@@H](CCC(=O)N2CCOCC2)CNC(=O)[C@@H]2[C@H]1CCN2C1CCCCC1 |
| 0% | O=C(Cn1ccnn1)N1CCC2(CCCN(CC3CC3)C2=O)C1 (configuration not stated) |
| -1%[70.6 µM] | COCCNC[C@@H]1C=C(C)[C@H](Cc2nnc(-c3ccc(N(C)C)cc3)o2)C[C@H]1C(C)C |
| -11% | Cc1cccc(CN2CCCCCNC(=O)[C@@H]3CCC[C@@H]32)c1 |
| -8% | O=C1Nc2ccc(-c3ccccc3F)cc2C(=O)N2CCN(C(=O)NC3CCCCC3)C[C@H]12 |
| -1% | COc1ccc(Cl)cc1-c1nc(C2CC(=O)N(c3ccc(F)cc3)C2)no1 (configuration not stated) |
| -29% | Cc1ccc(S(=O)(=O)N2CCC(n3cnnc3-c3ccccc3)CC2)c(C)c1 |
| u | O=[S+]1([O-])NC2(CCN(Cc3ccc(OC(F)(F)F)cc3)C2)CNc2ccccc21 (configuration not stated) |
| 9%[70.6 µM] | COc1ccc(C(=O)N2CCOCC3(CN(Cc4cc(F)ccc4F)C3)C2)cc1OC |
| -3%[70.6 µM] | O=C(NC[C@H]1O[C@@H](CC(=O)N2CCCC2)[C@H](O)[C@@H]1O)c1cccc(F)c1 |

Following part.
| hNpr1 antagonist | Molecule |
| --- | --- |
| 5% | Cc1ccc(C(=O)N2CCCCCCNC(=O)CC2c2ccccc2)s1 (configuration not stated) |
| 3% | O=C(c1ccc(N2CC[C@H](O)C2)nc1)N1CCC(N2CCOCC2)CC1 |
| -1% | COCC(=O)N1CCCC(C(=O)NCCCc2ccccc2)CCNC(=O)CC1 (configuration not stated) |
| 0% | Cc1ccc(C(=O)NCCn2ccn3nc(-c4ccc(C)c(C)c4)cc3c2=O)cc1 |
| 5% | COCCN(CCNC(=O)C1Cn2cccc2C(=O)N1C)Cc1ccco1 (configuration not stated) |
| 9% | CC(Cn1cncn1)Nc1nc(-c2ccncc2)nc2c1cnn2C (configuration not stated) |
| 2%[70.6 µM] | CN(C)CCNC(=O)C(C)(C)Oc1nn(CC2CCOCC2)c2ccccc12 |
| -14% | CCOc1ccccc1C(=O)N1CCN(c2cc(-c3ccc(OC)cc3)[nH]n2)CC1 |
| 8% | Cc1ccc(-c2nnc(C3CN(C(=O)c4ccnn4C)CC34CCOCC4)o2)cc1 (configuration not stated) |
| 7% | CCN1c2cc(C(=O)N3CCN(c4ccc(F)cc4)CC3)ccc2C(=O)N2CCCCC21 (configuration not stated) |
| -22% | COc1cccc(C(=O)Nc2ccc3ncnc(N4CCCCC4)c3c2)c1 |
| 2%[70.6 µM] | O=C(O)CC1(CC(=O)N2CCN3C(=O)N(Cc4ccccc4)C(=O)[C@H]3C2)CCCC1 |
| -26% | CCOc1ccccc1CNC(=O)c1cc2cn(C3CCCC3)cc2s1 |
| 0% | CCC(=O)N1CCCN(C)c2ccccc21 |
| -13% | O=C(Cn1nc2n(c1=O)CCCC2)NC1CCCC1 |
| 0% | CC(C)Cc1cc(C(=O)N2CCCC(c3ccc(C(=O)O)cc3)C2)nc(=O)[nH]1 (configuration not stated) |
| 5% | CS(=O)(=O)c1ccc(OCC2(CNC(=O)c3ccc(C#N)cc3)C[C@@H](O)[C@@H](O)C2)cc1 (some centres not stated) |
| 6% | Cc1cc(C(=O)NCC2CCCCC(=O)N2)n(C)n1 (configuration not stated) |
| 0% | CCc1noc([C@@H]2CC(F)(F)CN2C(=O)CCn2nc(C)cc2C)n1 |
| -2%[70.6 µM] | CCn1c2c(c(=O)n1-c1ccccc1)CCN(C(=O)c1scnc1C)C2 |
| -7%[70.6 µM] | CC(C)C(=O)N1CCC2(CC1)OC(=O)N(Cc1ccccc1)C2(C)c1ccccc1 (configuration not stated) |
| 3%[70.6 µM] | Cc1ccc(CN2C(=O)[C@@H]3C[C@@H](O)CN3C3(CN(Cc4cccc(F)c4)C3)C2=O)o1 |
| 2% | Cc1cc(C(=O)N2C[C@@H](CN3CCCCCC3)[C@@H](CO)C2)nc(C)n1 |
| -2%[70.6 µM] | COc1ccc(CN[C@@H]2CCC[C@@H](C(=O)N3CCN(C)CC3)CC(=O)N(C)C2)cn1 |
| u | CCOc1ccc(NC(=O)c2cc3n(n2)CC(c2ccc(Cl)cc2)OC3)cc1 (configuration not stated) |
| -2% | O=C1NCCCCCCN[C@H]2C[C@H](c3nc(-c4cnccn4)no3)C[C@@H]12 |
| -14%[70.6 µM] | O=C(OCc1ccccc1)N1CCOCC12CCN(Cc1ccccc1)CC2 |
| 5% | CC(NC(=O)c1ccc2c(c1)OCO2)C(=O)N1CCN(c2ccccn2)CC1 (configuration not stated) |
| 4% | CSCC1CCN(C(=O)CN2CC(c3ccccc3)CC2=O)CC1 (configuration not stated) |
| -1% | CNC(=O)Nc1ccc(C)n(CC(=O)N2CCN(c3cc(C)ccc3C)CC2)c1=O |
| -3% | CCN(Cc1nc(C)no1)C(=O)c1cc(COc2cccc(F)c2)[nH]n1 |
| 1%[70.6 µM] | CN(Cc1ccc(F)cc1)C1CCCc2ccccc21 (configuration not stated) |
| -20% | O=C(NCc1ccccn1)c1csc(N2CCN(c3ccccc3)CC2)n1 |
| 8% | CC(C)CNC(=O)N1C[C@@H](Oc2cccnc2)C[C@@H]1C(=O)N1CCOCC1 |
| 3% | COc1ccc(CNC(=O)N2CCCC(CN3CCCC3)CC2)cc1 (configuration not stated) |
| 28% | O=C(NCCc1ccccc1F)C1CN(c2cccc(Cl)c2)C(=O)N1 (configuration not stated) |
| -1% | CN(CC1CCOCC1)C(=O)Nc1ccc2c(c1)OCCO2 |
| -5% | COCC(=O)NC1CCC12CCN(C(=O)Cc1ccccc1)CC2 (configuration not stated) |
| -11% | COc1ccc(C(=O)N2CCC3(CC2)CC(N(C(=O)c2ccccc2)C2CC2)CCO3)cn1 (configuration not stated) |
| 0%[70.6 µM] | Cc1noc(C)c1-c1cc2cc(CN(C)C)oc2c(-c2ccc([S+](C)(=O)[O-])cc2)n1 |
| -21%[70.6 µM] | O=C(Nc1ccc(F)cc1)c1cccn2nccc12 |
| 4% | CN(CCO)C[C@@H]1CN(C(=O)c2ccc3c(c2)CCC3)C[C@@H]1CO |
| 2%[70.6 µM] | COC(=O)[C@@H]1CN(C(=O)c2ccc(N(C)C)cc2)CCN1C(C)=O |
| 8%[70.6 µM] | C[S+](=O)([O-])N1CCn2c(nnc2-c2ccccc2)C1 |
| u | O=C(c1ccc2c(c1)N(C(=O)c1ccccc1)CC2)N1CCN(c2ccc(Cl)cc2)CC1 |
| 10% | CCc1nc(-c2c3n(c(=O)n(CC(=O)NC4CCCC4)c2=O)CCCC3)no1 |
| 0% | CC(C)CN1C(=O)c2cccn2CC1CNC(=O)c1cccc(F)c1 (configuration not stated) |
| -12% | Cn1nccc1C(=O)N1CCC2(CC1)CC(OCC1CC1)CCO2 (configuration not stated) |
| -11% | CC(C)CCN1C[C@@H](NC(=O)c2cccnc2)C[C@H]1CO |
| -1% | O=C(c1cc(COc2ccccc2F)[nH]n1)N1CCOCC1 |
| -3% | O=C(NCCc1ccc(Cl)cc1)c1nc(-c2cccc(C(F)(F)F)c2)c2ccccn12 |
| 1% | CCNC(=O)N1CCCC1c1noc(CCC(=O)NCC2CC2)n1 (configuration not stated) |
| -5% | CCOCC(=O)N1CCCCCCNC(=O)[C@@H]2C[C@@H](c3nc(-c4cccnc4)no3)C[C@@H]21 |

Part of the list above in order of count of non-hydrogen atoms, high to low.
| hNpr1 antagonist | Molecule |
| --- | --- |
| -5% | CCOCC(=O)N1CCCCCCNC(=O)[C@@H]2C[C@@H](c3nc(-c4cccnc4)no3)C[C@@H]21 |
| -3% | O=C(NCCc1ccc(Cl)cc1)c1nc(-c2cccc(C(F)(F)F)c2)c2ccccn12 |
| 10% | CCc1nc(-c2c3n(c(=O)n(CC(=O)NC4CCCC4)c2=O)CCCC3)no1 |

Part of the list above in order of number of heavy atoms, low to high:
| hNpr1 antagonist | Molecule |
| --- | --- |
| -21%[70.6 µM] | O=C(Nc1ccc(F)cc1)c1cccn2nccc12 |
| -11% | CC(C)CCN1C[C@@H](NC(=O)c2cccnc2)C[C@H]1CO |
| -1% | O=C(c1cc(COc2ccccc2F)[nH]n1)N1CCOCC1 |
| 4% | CN(CCO)C[C@@H]1CN(C(=O)c2ccc3c(c2)CCC3)C[C@@H]1CO |
| 0% | CC(C)CN1C(=O)c2cccn2CC1CNC(=O)c1cccc(F)c1 (configuration not stated) |
| 10% | CCc1nc(-c2c3n(c(=O)n(CC(=O)NC4CCCC4)c2=O)CCCC3)no1 |
| 0%[70.6 µM] | Cc1noc(C)c1-c1cc2cc(CN(C)C)oc2c(-c2ccc([S+](C)(=O)[O-])cc2)n1 |
| -3% | O=C(NCCc1ccc(Cl)cc1)c1nc(-c2cccc(C(F)(F)F)c2)c2ccccn12 |
| -5% | CCOCC(=O)N1CCCCCCNC(=O)[C@@H]2C[C@@H](c3nc(-c4cccnc4)no3)C[C@@H]21 |
| -11% | COc1ccc(C(=O)N2CCC3(CC2)CC(N(C(=O)c2ccccc2)C2CC2)CCO3)cn1 (configuration not stated) |

An excerpt, so the mix of outcomes need not match the whole.
